# Source: PubChem (National Center for Advancing Translational Sciences (NCATS))
# AmpC nodet inh = Promiscuous and Specific Inhibitors of AmpC Beta-Lactamase (assay without detergent). P00811. AmpC nitrocefin hydrolysis, absorbance 480 nm, no detergent; potencies from a single point are estimates. Potency, µM (doses to about 28.7 µM), for inactives: at the top dose activity change, negative = inhibition. hit rate 1.8% among 71,000. AID 585, 2007; active = falling curve, for most hits resting on a single point; inconclusive = weak or doubtful change; inactive = flat or rising curve; note: % of control where 0% means no effect; about half of the hits show no inhibition at the top dose; a quarter of the inactives give rising signals
# Target sequence (P00811 whole entry, looked up): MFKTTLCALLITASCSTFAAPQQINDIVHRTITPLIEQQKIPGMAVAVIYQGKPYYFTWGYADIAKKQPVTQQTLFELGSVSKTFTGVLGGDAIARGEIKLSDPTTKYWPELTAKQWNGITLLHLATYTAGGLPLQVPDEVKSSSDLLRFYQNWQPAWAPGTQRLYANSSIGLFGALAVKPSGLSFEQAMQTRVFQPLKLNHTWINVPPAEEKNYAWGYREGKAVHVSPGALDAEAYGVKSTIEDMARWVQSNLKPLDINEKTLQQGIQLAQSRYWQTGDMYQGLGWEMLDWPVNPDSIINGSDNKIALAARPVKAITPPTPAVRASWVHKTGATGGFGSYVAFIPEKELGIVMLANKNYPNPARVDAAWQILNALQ
#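 Enzyme, pH 7.0 phosphate. Compound titrations were pre-incubated with AmpC for 15 min at room temperature before nitrocefin (stock 800 uM) addition; product formation was recorded at 480 nm every 20 s for 4 min.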
# Active calls of the source: *; ? = inconclusive; [ ] = dose if it differs, or a comment. Potency is the fitted concentration of half-maximal effect. The list is partial; count on the stated rates, not on these rows.
# Sample of the layout (five entries):
structure,AmpC nodet inh
Cc1cc(C(=O)N2CCOCC2)n(-c2ccccc2)n1,3%
CCS(=O)(=O)NCC(c1cccnc1)N1CCN(c2ccc(F)cc2)CC1 (centres undefined),16%
Cc1ccc(NC(=O)c2cc(C)on2)cc1,-14%
CCC1(CC)Nc2ccccc2C(=O)N1c1ccc(NC(C)=O)cc1,-1%
CSc1ccc(-c2nnn(Cc3ccc(C)cc3)n2)cc1,-15%

# The whole of this part, previewed entries included:
structure,AmpC nodet inh
Cc1cc(C(=O)N2CCOCC2)n(-c2ccccc2)n1,3%
CCS(=O)(=O)NCC(c1cccnc1)N1CCN(c2ccc(F)cc2)CC1 (centres undefined),16%
Cc1ccc(NC(=O)c2cc(C)on2)cc1,-14%
CCC1(CC)Nc2ccccc2C(=O)N1c1ccc(NC(C)=O)cc1,-1%
CSc1ccc(-c2nnn(Cc3ccc(C)cc3)n2)cc1,-15%
COc1ccc(NC(=O)N2CCC3(CC2)CCN(C(=O)c2ccncc2)CC3)cc1,16%
CCOc1ccc(Nc2ncnc3c2cnn3-c2ccccc2)cc1,5%
CCOC(=O)C1=C(C)NC2=C(C(=O)CCC2)C1c1cccs1 (centres undefined),-7%
CCCCNc1nc(C)nc2c1nc(-c1ccccc1)n2CCCN(C)C,50%
COc1ccc(C)cc1S(=O)(=O)Nc1cccc(SC)c1,2%
Cc1noc(C)c1COC(=O)CCC(=O)c1ccc(F)cc1,3%
CCOC(=O)Cc1csc(NC(=O)c2ccc3c(c2)OCO3)n1,-6%
Cc1c(NS(C)(=O)=O)c(=O)n(-c2ccccc2)n1C,-14%
Cc1[nH]c2ccc(-c3nnc(SCC(=O)N4CCCc5ccccc54)o3)cc2c1C,82%
CN1CCCN([C@@H](c2ccccc2)c2ccc(Cl)cc2)CC1,22%[12.8 µM]
COc1ccc(N(CC(O)CN2CCCCC2)S(=O)(=O)c2ccc(C)cc2)cc1 (centres undefined),14%
CC(C)(C)n1ncc2c(=O)n(CC(=O)N3CCc4ccccc43)cnc21,15%
Cc1sc2nc(SCC(=O)c3cc(C)n(CC4CCCO4)c3C)n(C(C)C)c(=O)c2c1C (centres undefined),73%
COc1ccc(N2C(=O)CCC(C(=O)N3CCC(C(N)=O)CC3)C2c2ccc(F)cc2)cc1 (centres undefined),12%
O=C(O)C1CCCN1S(=O)(=O)c1cccc2cccnc12 (centres undefined),3%

# Retrieved one by one from above:
structure,AmpC nodet inh
O=C(O)C1CCCN1S(=O)(=O)c1cccc2cccnc12 (centres undefined),3%
CCOc1ccc(Nc2ncnc3c2cnn3-c2ccccc2)cc1,5%
CN1CCCN([C@@H](c2ccccc2)c2ccc(Cl)cc2)CC1,22%[12.8 µM]
Cc1cc(C(=O)N2CCOCC2)n(-c2ccccc2)n1,3%
COc1ccc(C)cc1S(=O)(=O)Nc1cccc(SC)c1,2%

# Some of the entries above, set out differently.
canonical_smiles: CSc1ccc(-c2nnn(Cc3ccc(C)cc3)n2)cc1
  AmpC nodet inh = -15%

canonical_smiles: COc1ccc(N2C(=O)CCC(C(=O)N3CCC(C(N)=O)CC3)C2c2ccc(F)cc2)cc1 (centres undefined)
  AmpC nodet inh = 12%

# (more compounds)
structure,AmpC nodet inh
O=C(c1ccco1)N1CCC2(CC1)CN(c1ccccc1)C2,54%
C=CCn1c(SCc2nc3c(c(=O)[nH]c(=O)n3CCCC)n2CCC)nnc1-c1ccccc1,56%
O=C(O)CCC(=O)N1CCN(c2nc3ccccc3s2)CC1,2%
COc1ccc(OC)c(Nc2nc(-c3cccs3)cs2)c1,4%
COc1ccc(CNC(=O)CSc2nnnn2Cc2ccccc2)cc1,6%
COCCn1c(CN2CCN(c3ccc(OC)cc3)CC2)nc2c1c(=O)n(C)c(=O)n2C,71%
CC1CN(C(=O)Cn2cnc3c2c(=O)n(C)c(=O)n3C)CC(C)O1 (centres undefined),-6%
Cc1ccc(S(=O)(=O)N2CCOCC2)cc1C(=O)Nc1c(C)n(C)n(-c2ccccc2)c1=O,-2%
O=C(O)c1cc(Cl)cc(Cc2cc(Cl)cc(C(=O)O)c2O)c1O,-7%[5.75 µM]
Cc1ccccc1-c1cncnc1NCc1cccs1,3%
CCCN(CCC)CCNC(=O)c1cc2c(=O)n(C)c3ccccc3c2n1C,30%
c1ccc(CNc2ncncc2-c2ccoc2)cc1,40%
CC1CCN(S(=O)(=O)c2ccc(Br)s2)CC1,-7%
CCOc1ccc2[nH]c(=O)c(CN(Cc3nnnn3CCc3ccccc3)CC3CCCO3)cc2c1 (centres undefined),134%
Cc1ccccc1N1C(=O)c2cccc3c(N(C)CCO)ccc(c23)C1=O,28%
CC(=O)OC(C(=O)NCc1ccc2c(c1)OCO2)c1ccccc1Cl (centres undefined),6%
Nc1nc2nc3c(nc2c(=O)[nH]1)CN(c1ccc(C(=O)O)cc1)C3=O,4%[5.75 µM]
NC12CC3CC(C1)CC(O)(C3)C2,-12%
CC(=O)Nc1ccccc1NC(=O)C(F)(F)F,-12%
CC(C)CN(CC(C)C)c1nc(N)c(C#N)c(CC#N)c1C#N,21%
O=C(O)CC(CC(=O)O)C(=O)O,1%[5.75 µM]
O=C(CCCCn1c(=O)c2ccccc2n(CC(=O)Nc2cccc(F)c2)c1=O)NCc1ccco1,12%
COc1cc(CN2CCN(c3ccccc3F)CC2)cc(OC)c1O,10%
CCOc1ccc(CCNC(=O)C(CC)n2nc(C)n3c(cc4sccc43)c2=O)cc1OCC (centres undefined),80%
C[C@H](NCCN(C)C)[C@@H]1CCC2C3CCc4cc(O)ccc4[C@H]3CCC21C (some centres undefined),4%[5.75 µM]
O=C(CSc1nnc(-c2cccnc2)n1Cc1ccco1)c1ccc(Cl)c(Cl)c1,-5%
CCSc1nc2c(c(=O)[nH]1)C(C(C)C)C(C#N)=C(N)O2 (centres undefined),2%
O=C(Oc1ccc2ccc(OC(=O)N3CCOCC3)cc2c1)N1CCOCC1,36%
CCOC(=O)N1CCN(c2nc(C)cc(C(F)(F)F)n2)CC1,27%
CCOC(=O)c1c(-c2ccc(OC)cc2)nc2nonc2c1N,-16%
Cc1ccc(OCCn2c(C)c(/C=N/n3cnnc3)c3ccccc32)cc1,45%
CN1C(=O)N(C)C2CC1N(C)C(=O)N2C,3%
CCOC(=O)c1c(C)[nH]c(C(=O)COC(=O)c2cn(CC)c3nc(C)ccc3c2=O)c1C,6%
CC(C)C(c1nnnn1Cc1ccccc1)N(CCCO)Cc1cc2cc3c(cc2[nH]c1=O)OCO3 (centres undefined),39%
CCC(C)c1ccc(O)c(N)c1 (centres undefined),2%
COc1ccc(OC)c(C(c2nnnn2C(C)(C)C)N2CCc3ccccc3C2)c1 (centres undefined),82%
CN(C)c1ccc(/C=N\NC(=O)c2cnc3ccccc3c2)cc1,3%[5.75 µM]
C[C@@]12C(=O)OC(=O)[C@]1(C)[C@H]1CC[C@@H]2O1,-2%[12.8 µM]
C=C1CSc2nc(=O)c3c(C)c(C)sc3n21,-3%
CN(c1ccccc1C(N)=O)S(=O)(=O)c1ccccc1,5%
Cc1cc(Nc2ccccc2C(=O)O)nc2nc3ccccc3c(=O)n12,-21%
CC(=O)N(CN1C(=O)c2ccccc2C1=O)c1cccc(C)c1,16%
O=S(=O)(c1cccc(C(F)(F)F)c1)N1CCC(O)(c2cccnc2)CC1,32%
Cc1cc(C)c(C(=O)CN2C(=O)CCC2=O)cc1C,18%
CC(=O)c1ccc(NC(=O)N2CCN(c3cccc(Cl)c3)CC2)cc1,5%
CN1CCN(C2=C(Cl)C(=O)N(c3ccc(Cl)c(Cl)c3)C2=O)CC1,-13%
CN1CCCN(C(=O)c2cc(=O)[nH]c3ccccc23)c2nc3ccccc3nc21,32%
COc1ccccc1C(=O)OCn1nnc2ccccc2c1=O,42%
CCc1ccc2oc(-c3cc(N)cc(C)c3O)nc2c1,-14%
O=C(O)c1cc(C(=O)O)cc(N2C(=O)c3ccccc3C2=O)c1,3%[5.75 µM]
CC(C)c1nc(=S)n(-c2ccccc2)[nH]1,-4%
N#Cc1ccc(CN2CCCC3(CCN(C(=O)c4ccncc4)CC3)C2)cc1,26%
COc1ccc(CNc2nc3ccccc3n2CCN2CCCCC2)c(OC)c1,14%
BrCCBr,-1%
CCn1c(=NC(=O)CSC(C)=O)sc2ccccc21,8%
COc1ccc(C[C@@H]2C(=O)N[C@H](C)C(=O)N(C)[C@@H]3Cc4ccc(cc4)Oc4cc(ccc4O)C[C@H](C(=O)N[C@@H](C)C(=O)N[C@H](C)C(=O)N2C)N(C)C3=O)cc1,116%[5.75 µM]
O=C(Nc1ccc2c(c1)oc1ccccc12)C1CC1,-16%
CCCc1nc(SCC(=O)N2CCCC2)c2ccccc2n1,2%
O=C(O)c1ccccc1C1=Nc2ccc(O)cc2Oc2cc(O)ccc21,-20%
COC(C(=O)Nc1cccc(F)c1)c1ccccc1 (centres undefined),-4%

# The list continues:
structure,AmpC nodet inh
Cc1ccc2nc(-c3ccc(NC(=O)c4ccco4)cc3)[nH]c2c1,12%
CCCOc1ccc(N2CC(C(=O)NC(C)C)CC2=O)cc1 (centres undefined),17%
CC1CCN(C(c2ccc(N(C)C)cc2)c2nnnn2C(C)(C)C)CC1 (centres undefined),41%
CC/C(=N\O)C(C)(C)/[N+]([O-])=C/c1ccc(Br)cc1,1%
COCCNC(=O)C(c1cccc(OC)c1)N(Cc1cccs1)C(=O)Cn1nnc2ccccc21 (centres undefined),71%
CC(=O)c1cc(-c2ccc(F)cc2)n(CC(=O)NCc2cccs2)c1C,-12%
CC(=O)Nc1ccc(SCC(=O)OCC(=O)NC(=O)NCc2ccco2)cc1,0%
C[C@H](Br)C(=O)N[C@H](CO)C(=O)O,0%[5.75 µM]
CCCCN(C(=O)Cn1nnc2ccccc21)C(C(=O)NCCOC)c1ccc(OC)cc1OC (centres undefined),93%
CC(=O)Nc1nonc1NC(C)=O,-8%
Cc1[nH]c2c(Cl)cccc2c1CCN,6%
O=[n+]1cc(-c2ccccc2)n([O-])c2c1CCC2,-9%
CCCn1c(-c2ccc(F)cc2)nc2c(NCCN(C)C)nc(C)nc21,24%
COc1ccc(CCN2C(=O)c3[nH]nc(-c4ccccc4O)c3C2c2ccc(C)cc2)cc1OC (centres undefined),30%
COc1ccccc1-c1c(C)nn2c(C)cc(C)nc12,30%
Cn1c(=O)[nH]c(=O)c2c1nc(N1CCCC1)n2CCCSc1nc2ccccc2o1,92%
CCn1c(SCC(=O)Nc2ccc(OC)c(OC)c2)nnc1-c1cccs1,23%
Nc1c2c(nc3ccn(-c4ccccc4)c(=O)c13)CCCCC2,-11%
O=C(CC(CC(=O)c1ccccc1)C(=O)O)c1ccccc1,-20%
NC(N)=NNC(=O)C(=O)O,8%[5.75 µM]
Cc1ccc(N2C(=O)CC(N3CCN(C4CCc5ccccc5C4)CC3)C2=O)cc1 (centres undefined),12%
Cc1cc(C)nc(Sc2c(C)n[nH]c2C)n1,-11%
O=C(c1ccc(CNS(=O)(=O)c2ccccc2)cc1)N1CCC2(CC1)OCCO2,19%
Cc1occc1C(=O)Nc1ccccc1NC(=O)c1ccoc1C,?
Oc1ccccc1Nc1nc(NCC2CCCO2)c2ccccc2n1 (centres undefined),-2%
COc1cc(S(=O)(=O)N(Cc2cccs2)CC2CCCO2)ccc1-n1cnnn1 (centres undefined),62%
CCOC(=O)c1cc(OC(=O)c2cccnc2)n(-c2ccccc2)n1,-7%
CCOC(=O)N1CCN(c2nc(C(F)(F)F)nc3c(C)cc(C)cc23)CC1,63%
O=C(O)[C@@H]1[C@@H](C(=O)NCc2ccccn2)[C@@H]2C=C[C@@H]1O2,-7%[5.75 µM]
COc1cc2c(cc1OC)-c1c(OC)c(OC)c(CO)c3c1[C@H](C2)N(C)CC3,20%
CNC(=O)CN(c1cccc2ccccc12)S(C)(=O)=O,0%
COc1ccc(C[C@@H]2C(=O)N[C@H](C)C(=O)N(C)[C@@H]3C(=O)N(C)[C@@H](Cc4ccc(O)c(c4)Oc4ccc(cc4)[C@H]3O)C(=O)N[C@@H](C)C(=O)N[C@H](C)C(=O)N2C)cc1,102%[5.75 µM]
COc1ccc(C(=O)NCCn2cc(SCC(=O)Nc3cc(C)on3)c3ccccc32)cc1OC,24%
O=C(c1ccc(CSCc2ccccc2F)o1)N1CCN(c2ccc(N3CCOCC3)nn2)CC1,162%
CSc1nnc(CNC(=O)c2ccccc2)n1-c1ccc(F)cc1,34%
c1cc(-c2nc3cc(Oc4ccc5oc(-c6ccncc6)nc5c4)ccc3o2)ccn1,25%
COc1cccc(C2CC(c3cccc(OC)c3)n3nc(N)nc3N2)c1 (centres undefined),4µM*[single pt active]
O=C(c1cnccn1)N1CCC2(CCN(Cc3nccs3)CC2)CC1,1%
C[C@@H]1O[C@@H](O[C@H]2C[C@@H](O)[C@@]3(CO)[C@H]4[C@H](O)C[C@]5(C)[C@@H](C6=CC(=O)OC6)CC[C@]5(O)[C@H]4CC[C@@]3(O)C2)[C@@H](O)[C@H](O)[C@H]1O,-1%[5.75 µM]
COC(=O)CSc1nnc(-c2ccc(NS(=O)(=O)c3ccccc3)cc2)o1,?
Cc1csc2nc(CNC(=O)c3ccco3)cn12,-3%
c1cc(-c2nc3ccccc3o2)nc(-c2nc3ccccc3o2)c1,-4%
O=C(Cn1ncc2c(=O)oc3ccccc3c21)N(Cc1ccco1)C1CCCCC1,3.2µM*[single pt active]
